AID504770: growth inhibition of E. coli YBA685, primary screen, V. cholerae RctB inhibitors; z-score (test concentration not listed); actives 0.27% (n = 130,000); E. coli YBA685 rctB-dependent plasmid, OD600 growth, 3 h; active compounds read low;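 active = z-score under -2 on both plates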;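 also: wells of about 30 µL received 100 nL stock; score is relative to mean and SD of the test wells; the first replicate is given; strong numbers were not always called active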
CapD inh: Bacillus anthracis CapD inhibitors, primary screen, biochemical, fluorescence intensity. CapD gamma-glutamyltranspeptidase (Bacillus anthracis Ames Ancestor). purified CapD enzyme, fluorescence intensity read-out; active compounds read low; some hits fall short of the stated cut. z-score (no concentration beside the values). actives 0.23% (n = 140,000). AID 492967, 2010;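 active = z-score under -4 in either of two replicates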;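 also: stock transfer was 100 nL into about 40 µL; score is relative to mean and spread of the plate; one replicate is shown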
* hit, by the source's call; x = no result given.

SMILES	AID504770	CapD inh
Cc1ccccc1NC(=O)CSc1nc2scc(C)c2c(=O)[nH]1	0.65	x
O=c1oc2ccc3ccccc3c2c2c1SC(C(F)(F)F)C2 (centres undefined)	-0.5	1.68
Cc1onc(-c2c(Cl)cccc2Cl)c1NC(=O)N(C)N	-0.25	0.375
CS(=O)(=O)Nc1nc2ccc(Cl)cc2s1	0.6	0.825
CNc1nnc(-c2ccccc2)c2ccccc12	-1	x
S=C(NCc1ccccc1)N1CCn2c(nc3ccccc32)C1	-0.85	0.99
O=C(NC(=O)N1CCOCC1)c1csnn1	x	0.785
CCOc1ccc(C(=O)OCC(=O)NC2CCCCC2C)cc1 (centres undefined)	0.15	-0.26
CC(C)(C)c1nnc(-c2ccc(Oc3cc(Cl)cc(Cl)c3)o2)o1	0.1	11.1
COc1ccc(CCNc2nc(N3CCCC3)nc(N3CCCC3)n2)cc1OC	0.95	0.58
COc1ccc(N(C=O)C(=S)SC)cc1	-0.4	x
c1ccc(CNc2nc3ccccc3n3cnnc23)cc1	-0.7	0.825
CCOC(=O)c1ccc(N2C(=O)C(Oc3ccccc3)C2c2ccc(OCC)cc2)cc1 (centres undefined)	-0.6	0.06
COC(=O)c1ccc(Cn2cc(C(F)(F)F)cc([N+](=O)[O-])c2=O)cc1	x	-0.51
CC(=O)N(C)/C=C1\Sc2ccccc2C1=O	x	0.135
Cc1cc(C)c(CSCCn2c(C)ccc2C)c(C)c1	0.15	0.075
CCOC(=O)c1c(C)[nH]c(C(=O)c2cc3cc(Br)ccc3o2)c1C	1.05	x
COc1cc(C(=O)CN2C(=O)c3ccccc3C2=O)c(OC)cc1Br	-0.35	0.605
O=C(Cc1ccccc1)NC1CCN(C(=O)c2ccco2)CC1	-0.15	0.225
COCCN1C(=O)CC(Sc2ncccc2C(=O)O)C1=O (centres undefined)	1.05	-0.1
CCOC(=O)n1c(=S)oc2ccccc21	1.05	13.9
CN1CCN(c2ccccc2NC(=O)C(Cc2ccccc2)n2cccc2)CC1 (centres undefined)	1.1	-0.41
Clc1ccc(-c2noc3ncnc(NCCN4CCOCC4)c23)cc1	-0.25	0.37
O=C(OC1CCCCC1=O)c1cc(=O)c2ccccc2o1 (centres undefined)	0.6	x
NC(=O)c1c(NC(=O)COc2ccc(Cl)cc2)sc2c1CCN(Cc1ccccc1)C2	-0.15	55.5
Nc1ccc(OC(F)(F)F)cc1	-0.05	0.345
Cc1ccc(OC(=O)/C=C/c2cccs2)c([N+](=O)[O-])c1	x	-1.74
Cc1ccc(C(=O)Nc2nccs2)cc1I	0.8	0.42
Cc1cc(NS(=O)(=O)c2ccc(NC(=O)c3ccc(Cl)cc3)cc2)no1	x	-0.63
CN(C)c1nc(C(N)=O)nc(N2CCOCC2)n1	0.5	0.91
CC(C)(Oc1ccc(Cl)cc1)C(=O)N1CCC2(CC1)NC(=O)c1ccccc1O2	-0.9	0.42
O=C1CN(C(=O)CC2CCCCC2)C(c2ccccc2)c2cc(Br)ccc2N1 (centres undefined)	0.85	-0.97
CCOC(=O)C1CCN(Cc2cccc(NC(=O)c3cc(C)on3)c2)CC1	-0.6	0.44
Clc1ccc(OCOc2ccc(Cl)cc2)cc1	-0.95	-0.42
O=C1CC(c2ccc(Cl)cc2)c2ccc3ccccc3c2N1 (centres undefined)	x	0.04
Cc1cc(C)cc(NC(=O)COc2ccccc2C)c1	0.5	0.7
Cc1cc(C)c(C#N)c(SCCS(=O)(=O)Cc2ccccc2)n1	x	0.02
CC(C)CN(CC(C)C)C(=O)Cn1cnc2ccccc21	1.3	-0.255
O=C(Oc1ccccc1)c1ccc2c(c1)CCO2	0.55	-0.08
O=C(COc1ccccc1)Nc1ccc(-c2cn3cccnc3n2)cc1	0.25	97.7
O=C1c2ccccc2C(=O)N1CSc1nc2nn(-c3ccccc3)c(=O)c-2c2n1CCCCC2	0.7	x
CC(=O)N1CC2(C)CN(C(C)=O)CC(c3ccccc3)(C1)C2O (centres undefined)	-0.65	0.28
O=c1ssc(=NCc2ccccc2)n1Cc1ccccc1	-1.55	0.015
FC(F)(F)c1ccc(-c2nnc(SCc3ccncc3)n2Cc2ccco2)cc1	-0.15	0.79
CNC(=O)CN(c1cc(C)ccc1C)S(C)(=O)=O	-0.9	0.27
COCCN(CCOC)S(=O)(=O)c1ccc(C(=O)Nc2nnc(-c3cccc([N+](=O)[O-])c3)s2)cc1	x	-0.425
NC(=O)c1sc2nc(-c3ccccc3)ccc2c1N	1.6	-0.27
CSc1cccc(NC(=O)CSc2nc(C)cs2)c1	0.25	x
NS(=O)(=O)c1ccc(NC(=O)CCCN2C(=O)S/C(=C/C=C/c3ccccc3)C2=O)cc1	x	-0.755
CNC1CCCCN(C(=O)c2ccc(F)cc2)C1=O (centres undefined)	-0.6	x
CNC(=O)NC(=O)C(Sc1nnnn1C)c1ccccc1 (centres undefined)	-0.8	x
CCCn1c(SCC(=O)N(C(C)C)C(C)C)nnc1-c1cccnc1	-0.3	x
CN1CCN(CCNC(=O)c2nc(-c3cccnc3)no2)CC1	-0.95	-0.6
COc1ccc(NC(=O)c2sc(=S)n(-c3ccccc3)c2N)cc1OC	x	-0.23
N#CC(Sc1ncc(C(F)(F)F)cc1Cl)c1ccc(Cl)cc1Cl (centres undefined)	x	-0.175
CC(C)N(Cc1ccc(N(C)C)cc1)S(=O)(=O)c1cc(Cl)c(Cl)cc1Cl	x	0.045
CCN1CCN(C(=S)NC)CC1	-1.2	x
CC(=O)NC(=O)/C(C#N)=C/N1CCN(c2ccccc2)CC1	0.5	-0.605
COc1ccccc1CNc1ccc2c(c1)ncn2-c1ccccc1OC	-0.4	41.6
CS(=O)(=O)c1ccc(CSc2ccccc2NC(=O)c2cc(Cl)nc(Cl)c2)cc1	x	0.01

Next records follow.
SMILES	AID504770	CapD inh
Cc1cc(C(=O)COC(=O)c2cc(=O)[nH]c3ccccc23)c(C)n1C	2.4	x
Cc1nccc(-c2c(-c3ccccc3)noc2C)n1	1.55	0.21
COc1ccc(C2CCCCCN2)cc1 (centres undefined)	0.2	x
CCCn1cnc2c1c(=O)[nH]c(=O)n2C	-3.7*	-0.44
CCOC(=O)/C=C1\CCC=C1N1CCOCC1	0.7	x
Cc1nn(-c2ccccc2)c(C)c1C1NCCNC1=O (centres undefined)	2.6	x
COc1ccc(-c2nn(CN3CCC4(CC3)OCCO4)c(=S)n2-c2ccccc2)cc1	x	-0.285
CCCc1ccc(C(=O)C(C)OC(=O)C2=NNC(=O)CC2)cc1 (centres undefined)	-0.15	x
Cc1cc2c(cc1C)N(C(=O)COc1ccc(Cl)cc1)C(C)(C)c1ssc(=S)c1-2	x	-0.63
CC(C)c1ccc(-c2csc3ncn(N)c(=O)c23)cc1	-0.25	-0.4
Cc1ccc(C(=O)NCCc2nnc3ccc(SCC(=O)NC4CCCCC4)nn23)cc1	-0.5	-0.235
CS(=O)(=O)N1CCCc2ccccc21	x	-0.225
Clc1c2ccccc2c(-c2nc(-c3ccc(Br)cc3)c(-c3ccc(Br)cc3)[nH]2)c2ccccc12	x	-0.29
Cc1ccc(NC(=O)CCCNC(=O)Cn2cnc3sc4c(c3c2=O)CCCC4)c(Br)c1	x	-0.67
NC(=O)c1csc(-c2ccc(F)cc2F)n1	-0.1	-0.94
COC(=O)C1=CN(c2ccc(F)cc2)C=C(C(=O)OC)C1c1cccc(O)c1	0.95	-0.295
Cc1cc(N2CCN(C)CC2)ccc1NC(=O)c1ccc(S(=O)(=O)Nc2ccccc2F)cc1	-0.95	x
COc1cccc(N2C(=S)NC3c4ccccc4OC2(C)C3C)c1 (centres undefined)	-1.15	0.565
NC(=S)N/N=C(/C(=O)c1ccccn1)c1ccccn1	-0.7	x
Cc1nn(Cc2cccc(C(=O)Nc3nc4ccc(S(C)(=O)=O)cc4s3)c2)c(C)c1Cl	-0.4	5.71
Nc1nnnn1CC(=O)OCC(=O)Nc1ccccc1	-0.2	0.465
COc1ccccc1CNC(=O)c1cccs1	0.05	x
CCOC(=O)c1cc(C)sc1/N=C/C1C(=O)CCCC1=O	-0.2	0.07
Cc1ccc(-c2noc(=O)n2CC(=O)Nc2ccc(S(=O)(=O)N3CCCC3)cc2)cc1	-0.25	x

Structures from the list above that have an aryl methoxy group:
SMILES	AID504770	CapD inh
COc1ccc(CCNc2nc(N3CCCC3)nc(N3CCCC3)n2)cc1OC	0.95	0.58
COc1ccc(N(C=O)C(=S)SC)cc1	-0.4	x
COc1cc(C(=O)CN2C(=O)c3ccccc3C2=O)c(OC)cc1Br	-0.35	0.605
COc1ccc(NC(=O)c2sc(=S)n(-c3ccccc3)c2N)cc1OC	x	-0.23
COc1ccccc1CNc1ccc2c(c1)ncn2-c1ccccc1OC	-0.4	41.6
COc1ccc(C2CCCCCN2)cc1 (centres undefined)	0.2	x
COc1ccc(-c2nn(CN3CCC4(CC3)OCCO4)c(=S)n2-c2ccccc2)cc1	x	-0.285
COc1cccc(N2C(=S)NC3c4ccccc4OC2(C)C3C)c1 (centres undefined)	-1.15	0.565
COc1ccccc1CNC(=O)c1cccs1	0.05	x

Following part:
SMILES	AID504770	CapD inh
O=c1sc2ccccc2n1Cc1ccccc1	-0.35	-0.35
Clc1ccc(OC2CN(C(c3ccccc3)c3ccccc3)C2)cc1	x	0.1
c1ccc2c(c1)c1ccccc1n2CN1CCOCC1	-0.05	x
Cc1ccc(OC2(c3ccccc3)OC(=O)c3ccccc32)c(C)c1 (centres undefined)	x	-0.625
Cc1cc(C)c(C#N)c(SCC(=O)Nc2c(Cl)cccc2Cl)n1	x	0.605
CS(=O)(=O)c1cc(C#N)c(N2CCN(C(=O)c3cc(Cl)nc(Cl)c3)CC2)nc1-c1ccccc1C(F)(F)F	x	7.12
O=C(NCc1ccc2c(c1)CCO2)OCC1CCCN(Cc2cc3c(cc2Cl)OCO3)C1 (centres undefined)	x	-0.38
Cc1coc2cc3oc(=O)c4c(c3cc12)CCCCC4	0.55	24.7
O=C(Oc1ccccc1)c1nn(-c2ccc(F)cc2)c(=O)c2ccccc12	x	-0.91
O=C(CSc1ncnc2ccccc12)Nc1ccccc1	-0.5	-0.075
Cc1ccc(-n2c(-c3nn(C)cc3Cl)n[nH]c2=S)cc1	-0.65	-0.215
Cc1sc2c(=O)n3c(nc2c1C(=O)NCCc1ccccc1)CCCCC3	x	0.275
Fc1ccc(-c2ccc(NCc3ccccc3)nn2)cc1	-0.65	x
CN(c1ccccc1)S(=O)(=O)c1ccc(C(=O)Nc2nccs2)cc1	-0.5	x
CC1Oc2ccccc2N(CC(=O)NCC2CCCO2)C1=O (centres undefined)	0.3	x
CC(NC(=O)CSc1nnc2c3ccccc3n(C)c2n1)c1ccccc1 (centres undefined)	0.9	0.225
CCc1ccccc1NC(=O)Cn1ncc2c(=O)oc3ccccc3c21	-0.4	0.165
CCOC(=O)c1cnc2ccccc2c1NCCCN1CCOCC1	1.4	0.525
O=C(CCCN1C(=O)NC2(CCCC2)C1=O)Nc1ccc2c(c1)OCCCO2	-0.15	x
Cc1c(S(=O)(=O)c2ccc(Cl)cc2)csc1C(=O)N(c1ccccc1)S(C)=O (centres undefined)	-0.75	-0.47
CCc1ccc(C2CC(=O)N3CN(c4ccccc4)CSC3=C2C#N)cc1 (centres undefined)	-0.1	0.26
O=S(=O)(Nc1ccc2oc3c(c2c1)CCCC3)c1ccccc1	x	0.17
CC(C)(C)C(=O)N(CCc1ccccc1)Cc1nc2ccccc2c(=O)[nH]1	-0.5	x
COc1cc2c(cc1OC)CN(CC(N)=O)CC2	0.05	x
N#CCSc1sc(=S)sc1SCC#N	x	-1.49
O=C(CCC(=O)N1CCc2cc(F)ccc21)N1CCOCC1	x	0.455
Cc1c(NC(=O)CN2CCC(C)CC2)c(=O)n(-c2ccccc2)n1C	-0.6	x
Cc1ccc2nc3c(c(N)c2c1)CCN3c1ccccc1	1.25	78.2
CC1CC(=O)Nc2ccccc2N1 (centres undefined)	x	-0.175
O=C1NC(c2ccc(Cl)cc2)Sc2ccccc21 (centres undefined)	x	-0.475
CCc1ccc2[nH]c(=O)c(CN(CCCN3CCOCC3)C(=S)NC)cc2c1	-0.6	x
CCOC(=O)CCC1(CCC(=O)OCC)c2ccccc2-c2nc3ccccc3cc21	0.25	36.2
O=C(CC12CC3CC(CC(C3)C1)C2)Nc1ccc2c(c1)COC2=O	0.15	10.4
O=C(NCc1ccccc1)c1ccc(-c2ccccn2)s1	x	23.4
CNC(=O)NC1CCCCc2sccc21 (centres undefined)	-0.45	-0.335
S=C(SCc1cc(Cl)cc2c1OCOC2)N1CCSCC1	0.35	1.03

One compound at a time, as listed above. Values in the order: AID504770	CapD inh
Cc1ccccc1NC(=O)CSc1nc2scc(C)c2c(=O)[nH]1 is listed as 0.65	x
COC(=O)c1ccc(Cn2cc(C(F)(F)F)cc([N+](=O)[O-])c2=O)cc1 is listed as x	-0.51
COc1cc2c(cc1OC)CN(CC(N)=O)CC2 is listed as 0.05	x

The list goes on:
SMILES	AID504770	CapD inh
COc1ccc2c(c1)[C@]13CCCC[C@@H]1[C@H](C2)N(C)CC3	x	0.18
Cc1ccc(NC(=O)CCn2cnc3ccccc3c2=O)cc1C	0.15	x
NC(=O)N1CCCC1C(=O)O (centres undefined)	-0.5	x
c1ccc(NCc2nc3ccccc3n2CCOc2ccccc2)cc1	-0.15	0.615
Cc1cccc(-n2ncc3c(=O)[nH]c(SCC(=O)NCCC4=CCCCC4)nc32)c1	-0.4	x
COc1cc(-n2nnnc2-c2ccc(Cl)cc2)c(Cl)cc1Cl	x	0.03
COc1cc(OC)c(OC)cc1/C=C1\N=C(c2ccc(OC)c([N+](=O)[O-])c2)OC1=O	x	0.335
CCSc1nc2ccccc2n1S(=O)(=O)c1ccccc1	1.1	7.66

Screening results (PubChem)

An unsorted share of the library; 0.41% or so of the library scored in one or more.
